Source: PubChem
MbtI inh – blocks the Mycobacterium tuberculosis siderophore enzyme MbtI | P9WFX0 | purified MbtI enzyme, fluorescence intensity read-out | 100,000 compounds, 0.89% hits | AID 493033 | inhibition, %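 (about 17 µg/mL by stock and volumes)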;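 active means above 50% in both replicates, above 80% if mildly self-fluorescent; inactive means the rest, strongly fluorescent compounds included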;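 further: 0% = mean of negative and 100% = mean of positive controls; one replicate is shown; some compounds called inactive have numbers as strong as hits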
Target sequence (P9WFX0 whole entry, looked up): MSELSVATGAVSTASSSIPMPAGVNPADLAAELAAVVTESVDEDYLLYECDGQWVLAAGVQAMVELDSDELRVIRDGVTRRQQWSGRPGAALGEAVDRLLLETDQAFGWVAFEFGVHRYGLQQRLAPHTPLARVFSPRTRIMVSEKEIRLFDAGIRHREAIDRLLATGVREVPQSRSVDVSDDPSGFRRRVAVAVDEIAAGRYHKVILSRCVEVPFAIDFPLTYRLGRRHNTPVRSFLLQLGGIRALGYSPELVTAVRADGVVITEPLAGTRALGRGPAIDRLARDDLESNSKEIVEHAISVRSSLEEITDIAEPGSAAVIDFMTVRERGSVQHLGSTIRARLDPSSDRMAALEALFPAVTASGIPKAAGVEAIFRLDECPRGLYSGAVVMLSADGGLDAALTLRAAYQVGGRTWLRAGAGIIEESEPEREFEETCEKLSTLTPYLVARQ
PV pol inh – poliovirus RNA polymerase inhibition | P03300 | poliovirus polymerase elongation, fluorescence polarization; active compounds read low | % elongation, % (compound at 16.7 µg/mL) | 150,000 compounds, 0.66% hits | AID 588519; in the data active means % elongation below about 90%; further: some results filed as inactive read as strong as hits
Target sequence (P03300 1749-2209 limits assumed): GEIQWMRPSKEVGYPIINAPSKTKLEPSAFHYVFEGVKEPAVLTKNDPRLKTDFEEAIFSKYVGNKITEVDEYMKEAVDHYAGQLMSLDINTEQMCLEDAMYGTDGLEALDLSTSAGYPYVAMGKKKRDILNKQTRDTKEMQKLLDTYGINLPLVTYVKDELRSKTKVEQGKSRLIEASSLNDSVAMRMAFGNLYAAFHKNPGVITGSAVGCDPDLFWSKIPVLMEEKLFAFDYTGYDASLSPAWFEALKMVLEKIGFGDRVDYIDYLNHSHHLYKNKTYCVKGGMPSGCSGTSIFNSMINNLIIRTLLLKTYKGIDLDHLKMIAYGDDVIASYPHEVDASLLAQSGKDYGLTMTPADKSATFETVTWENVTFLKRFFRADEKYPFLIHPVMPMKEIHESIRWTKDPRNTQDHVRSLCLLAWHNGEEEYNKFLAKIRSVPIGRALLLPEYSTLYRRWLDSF
Mtb MenB inh – inhibitors of Mycobacterium tuberculosis MenB enzyme; P9WNP5; MenB enzyme assay, absorbance read-out; some hits fall short of the stated cut; inhibition, %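 (about 12 µg/mL by stock and volumes)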; 100,000 compounds, 0.43% hits;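 active means mean of two replicates above 30%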;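 further: 0% = no compound and 100% = wells with inactive enzyme; the first replicate is given; strong numbers were not always called active; inactives centre near -10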
PV pol inh intensity – second read-out of PV pol inh, no call of its own (marks repeat the call); % elongation; measured here: total intensity read-out; formula for this scale not given here;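 total fluorescence in place of polarization; lower means less elongation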
* marks the source's active call; other numbers are inactive results; . = not tested or not shown. This is a random part of the collection; 1.8% or so of the library scored in one or more.

#	smiles	MbtI inh	PV pol inh	PV pol inh intensity	Mtb MenB inh
1	Cn1nc(C(=O)NCc2ccco2)c2c1-c1ccccc1SC2	-3	101	104	-8
2	Cc1ccc(C(C(=O)NC2CCCCC2)N(C(=O)Cc2c[nH]c3ccccc23)C2CC2)o1 (configuration not stated)	-12	98	96	-3
3	CCn1c2ccccc2c2nnc(N3CCC(C(N)=O)CC3)nc21	-7	104	107	-15
4	O=C(CSc1c2c(nc3cc(Cl)ccc13)CCCC2)N1CCCCCC1	-4	104	106	-37
5	COC(=O)c1c(C)nn(C(=O)c2cccs2)c1-c1snnc1C	-11	105	107	7
6	c1ccc(-n2ncc3c(NCc4ccccn4)ncnc32)cc1	123	104	106	-23
7	Cc1ccc(C(C(=O)NC2CCCC2)N2CCN(C(=O)c3ccco3)CC2)cc1 (configuration not stated)	-6	100	104	-62
8	O=C(CCn1c(=O)sc2ccccc21)Nc1ccccn1	-2	99	102	8
9	O=C(/C=c1\[nH]c(=O)/c(=C\c2ccsc2)s1)c1ccco1	98*	143	168	-195
10	Cc1onc(-c2ccccc2)c1C(=O)OCCCn1c(=O)[nH]c2ccccc21	-7	105	92	-28

A stretch from the list above, as a working copy:
#	smiles	MbtI inh	PV pol inh	PV pol inh intensity	Mtb MenB inh
7	Cc1ccc(C(C(=O)NC2CCCC2)N2CCN(C(=O)c3ccco3)CC2)cc1 (configuration not stated)	-6	100	104	-62
8	O=C(CCn1c(=O)sc2ccccc21)Nc1ccccn1	-2	99	102	8

The list goes on.
#	smiles	MbtI inh	PV pol inh	PV pol inh intensity	Mtb MenB inh
11	Fc1ccc(-n2nnc3c(SCc4ccc(C(F)(F)F)cc4)ncnc32)cc1	2	104	107	-12
12	CC1(C)Cc2cccc(OCC(=O)N3CCN(S(=O)(=O)c4ccc(F)cc4)CC3)c2O1	4	.	.	10
13	COCc1nc2ccccc2n1C(C)C	-10	99	98	-1
14	O=c1[nH]c2ccccc2nc1C(F)(F)C(F)(F)C(F)(F)C(F)F	-32	98	102	-17
15	COC(=O)c1ccc(CSc2nc(=O)n3cc(C)ccc3n2)o1	4	104	105	-32
16	Nc1nnc(SCC(=O)OCC(=O)Nc2ncc(Cl)cc2Cl)s1	2	100	96	-14
17	O=c1ccc(=O)n(CCO)[nH]1	0	100	103	-6
18	NC(=O)CSC1=Nc2ccccc2C2=NC(CCC(=O)NCc3cccs3)C(=O)N12 (configuration not stated)	71	99	101	-9
19	CN(C/C=C/c1ccccc1)Cc1cccc2ccccc12	0	101	102	-25
20	CCN(CC)C(=O)CSc1nc(-c2ccccc2)c(-c2ccccc2)o1	133	102	101	-17
21	CCOC(=O)c1ccc(NC(=O)c2ccc(C(C)(C)C)cc2)cc1	.	104	105	-1
22	CCn1c(/C=C/Nc2ccccc2)[n+](CC)c2ccc(S(=O)(=O)C(F)(F)F)cc21	-4	103	99	.
23	CCN(CC)c1ccc(NC(=O)c2oc3ccccc3c2COC)cc1	-2	107	104	-28
24	CN(C)C(Cl)=Nc1ccccc1	12	100	91	-20
25	Cn1c(=O)c2c(-c3ccc(Cl)cc3)n(C3CCCCC3)cc2n(C)c1=O	-342	101	106	-14
26	O=C(Oc1ccccc1N(C(=O)c1ccccc1)S(=O)(=O)c1ccccc1)c1ccccc1	5	104	100	-22
27	c1ccc(-n2nnnc2SCC2CCCCO2)cc1 (configuration not stated)	9	105	106	-19
28	O=C1NC(=S)N(c2ccc(Br)cc2)C(=O)/C1=C/c1ccsc1	56*	99	103	-34
29	CN(C)CCC(O)(CCc1ccccc1)c1ccccc1 (configuration not stated)	-6	107	108	6
30	CC(C)N1C(=O)CCC1C(=O)N1CCN(c2ccc(F)cc2)CC1 (configuration not stated)	-28	101	103	-27
31	CCN1CCc2nc(NC(=O)c3ccccc3)sc2C1	14	104	104	.
32	O=C(CCCC(=O)N1CCCc2ccccc21)N1CCCc2ccccc21	.	99	96	-11
33	COc1nccc(C(F)(F)F)c1C(=O)NC(=O)Nc1c(C)cccc1C	-11	95	103	0
34	O=C(COc1ccc(Cl)cc1Cl)Nc1ccc2nc3n(c(=O)c2c1)CCCC3	-3	102	105	4
35	O=C(CC(c1ccccc1)c1ccccc1)NCc1ccccc1	.	104	99	-9
36	Cc1ccc(SCC(=O)N2CC(C)CC(C)C2)cc1 (configuration not stated)	13	101	101	-23
37	COc1ccc(-c2nc3scc(CCN)n3n2)cc1	5	102	104	-13
38	CCOC(=O)N1CCN(C(=O)COC(=O)c2ccc3c(c2)NC(=O)CS3)CC1	-8	104	107	-25
39	CCN(CC)C(=O)NC1CCCCCC1	-12	100	102	-13
40	COc1ccc(CN2CC(C(=O)NCCN3CCN(c4ccccc4F)CC3)CC2=O)cc1 (configuration not stated)	6	101	102	-5
41	CC1CCCN(C(=O)CSc2nc3ccccc3nc2-c2ccccc2)C1 (configuration not stated)	-1	104	106	.
42	COC(=O)c1ccc2c(c1)sc(=NC(=O)c1ccc(S(=O)(=O)N3CCCCC3C)cc1)n2C (configuration not stated)	-7	101	103	-26
43	COC(=O)c1ccc(NS(=O)(=O)N(C)C)cc1	-5	104	104	-5
44	Cc1ccc(NCc2nc3ccccc3n2C)cc1	-1	99	100	-12
45	Cc1nn(-c2ccc(Cl)cc2)c2sc(C(=O)NCCCN3CCCC3=O)cc12	-30	101	94	-28
46	CCOc1cc(C(=O)Nc2ccncc2)cc(OCC)c1OCC	-3	103	100	-4
47	CCn1cc(CC(C)N)c2ccccc21 (configuration not stated)	88	102	103	7
48	COC(=O)c1cccc(N=C2N=C(N)c3ccccc32)c1	11	100	102	-12
49	COc1ccccc1NC(=O)NC1(C(=O)N2CCCCC2)CCCCC1	-7	100	103	6
50	O=c1cc(CNc2ccc(S(=O)(=O)N3CCCC3)cc2)c2cc3c(cc2o1)CCC3	26	103	100	-3
51	CN1C(c2ccccc2)=Nc2cccc3cccc1c23	-12	99	103	-12
52	O=c1cc2c3c(cc(O)cc3o1)OC2	112	97	101	-29
53	CC1(C)CC2(CCO1)NN=C(c1ccccc1)S2 (configuration not stated)	89	97	98	-32
54	CC(C)C(=O)N1CCN(c2ccc(NC(=O)Cc3ccccc3)cc2Cl)CC1	-8	102	103	-42
55	COc1ccc(N2CCN(C3c4ccccc4CC3NS(=O)(=O)c3ccccc3)CC2)cc1 (configuration not stated)	-12	107	112	-21
56	CCOC(=O)c1cnc2c(C)c(Cl)ccc2c1Nc1cc(C)ccc1OC	2	101	107	-15
57	O=C(NCCc1c[nH]c2ccccc12)c1ccc(F)cc1F	-5	104	107	.
58	O=C(CN1CCc2ccccc21)NC(=O)NCc1ccco1	26	113	105	1
59	C=CCOC(=O)c1cn(CC)c2nc(C)ccc2c1=O	-4	103	108	1
60	c1ccc2c(c1)ncn1nc(-c3cc(C4CC4)[nH]n3)nc21	-7	105	107	-56

(list continues)
#	smiles	MbtI inh	PV pol inh	PV pol inh intensity	Mtb MenB inh
61	Nc1ccccc1C(=O)Cc1ccccc1	-111	98	100	-19
62	C=C(C)c1cccc(C(C)(C)NC(=O)N2CCC(C(=O)OCC)CC2)c1	-22	102	101	3
63	O=C(Cc1ccccc1)N1CCC(O)(c2cccnc2)CC1	-24	101	101	-11
64	CN(C)/C=C1\S/C(=N\S(=O)(=O)c2cccs2)N(c2ccccc2)C1=O	-3	103	102	1
65	CN(c1ccc(Cl)cc1)S(=O)(=O)c1cccc(C(=O)Nc2ccccc2)c1	.	94	102	-36
66	CCN(C(C)=O)c1nc(-c2ccc(Br)cc2)cs1	0	99	103	4
67	Cc1ccc(C(=O)C(C)OC(=O)C2CC(=O)N(C3CCCCC3)C2)cc1 (configuration not stated)	20	101	101	-7
68	Cn1nc(-c2ccc(S(=O)(=O)N3CCCN(C(=O)OC(C)(C)C)CC3)s2)cc1C(F)(F)F	-6	99	101	0
69	COC(=O)/C=C\c1cn(-c2ccccc2)nc1-c1ccc(OC)cc1	8	102	98	.
70	NC(=O)C1CCN(C(=O)CC2(CC(=O)O)CCCC2)CC1	-4	105	107	.
71	Cc1noc(C)c1C(=O)NCc1ccccc1F	-14	100	101	-11
72	Cc1sc2nc(CSc3nc4ccccc4n3CC(C)C)[nH]c(=O)c2c1C	-15	133	139	-30
73	COC(=O)C1=CN(C23CC4CC(CC(C4)C2)C3)C=C(C(=O)OC)C1c1ccc(F)cc1	108	101	105	-5
74	CCN1C(=O)N/C(=C/c2cccn2-c2ccc(C(=O)O)cc2)C1=O	-118	101	105	-87
75	CCCCC(=O)N=c1sc2cc3c(cc2n1CCC)OCO3	-9	101	103	-5
76	O=C(Oc1coc(CSc2ncccn2)cc1=O)c1ccccc1	4	103	103	-4
77	CSc1nc(SCC(=O)c2ccc3c(c2)OCO3)nc(N)c1C#N	.	102	111	9
78	OCC1CCCN(Cc2ccc(-c3ccccc3)cc2)C1 (configuration not stated)	-5	99	101	14
79	O=C(Cc1c(F)cccc1Cl)OCc1ncc(-c2ccccc2)o1	-3	106	108	-11
80	Cc1cccc2c1NC(=O)C21OCCO1	7	104	100	15
81	CCc1ccc2oc(-c3ccccc3)cc(=NCc3cccnc3)c2c1	132	98	85	2
82	CC(C)CNC(=O)COc1ccc(Cl)cc1Cl	-5	.	.	-2
83	Cc1cc2ccc(C)c(C)c2nc1SCC#N	-16	101	103	23
84	CCOC(=O)C1=C(N)Oc2n[nH]c(C)c2C12C(=O)N1c3c(cc(C)cc32)C(C)CC1(C)C (configuration not stated)	-10	102	106	-12
85	CO/N=C/c1c(N(C(C)C)C(C)C)nc2ccc(C)cn2c1=O	-2	105	105	-4
86	CCC1=NN(C(=O)c2ccccc2F)C(O)(c2ccccc2)C1 (configuration not stated)	.	100	101	-7
87	COCCn1c(=S)[nH]c2sc(C)c(C)c2c1=O	100*	80*	83*	-48
88	COc1cc(C2OC(=O)c3c2ccc(OC)c3OC)ccc1O (configuration not stated)	-3	99	106	-15
89	CCc1cc2c(CN(C)Cc3ccccc3F)cc(=O)oc2cc1O	0	105	113	-18
90	COC(=O)Cn1cnc2c(cnn2-c2ccc(OC)cc2)c1=O	3	102	100	-195
91	CCC(=O)Nc1nn2c(C)nnc2s1	6	102	102	-3
92	CC(C)N(CC(N)=O)C(=O)c1ccc2c(c1)NC(=O)CS2	-10	103	112	-1
93	Cn1ncc2c(NCc3ccccc3)nc(N3CCN(CCO)CC3)nc21	3	106	107	-12
94	CCOC(=O)c1nnn2c3ccccc3c(=O)n(C)c12	-17	107	114	5
95	Cc1ccc(Cc2cnc(NC(=O)/C(C#N)=C\c3ccc(-c4ccc(C)cc4)o3)s2)cc1	-4	104	108	-2
96	CCOC(=O)c1nn(-c2ccc(C)cc2)c(=O)cc1OCC(=O)NCc1ccco1	5	108	106	-20
97	Cc1ccc(NC(=O)c2sc3nc(-c4ccccc4)cn3c2C)cc1	-3	101	103	-25
98	CC(Cc1n[nH]c(=S)o1)c1ccccc1 (configuration not stated)	33	97	100	-26
99	CC1(C)OC(=O)C(=CNNc2ccc(C(F)(F)F)cc2)C(=O)O1	1	103	108	-8
100	CCOCCn1c(=NC(=O)C2CC2)sc2cc(S(C)(=O)=O)ccc21	1	105	108	3

Three compounds picked at random from those above:
#	smiles	MbtI inh	PV pol inh	PV pol inh intensity	Mtb MenB inh
21	CCOC(=O)c1ccc(NC(=O)c2ccc(C(C)(C)C)cc2)cc1	.	104	105	-1
83	Cc1cc2ccc(C)c(C)c2nc1SCC#N	-16	101	103	23
6	c1ccc(-n2ncc3c(NCc4ccccn4)ncnc32)cc1	123	104	106	-23

Next section:
#	smiles	MbtI inh	PV pol inh	PV pol inh intensity	Mtb MenB inh
101	COc1ccc2oc(=O)cc(CN(Cc3ccco3)C3CCCC(C)C3C)c2c1 (configuration not stated)	7	101	102	-1
102	NC(=O)CN1C(=O)CCS(=O)(=O)c2ccccc21	8	101	102	-8
103	CNC(=O)CC(=O)NC	-5	102	101	15
104	Cc1ccc(N=C2C(=O)N(CN3CCCC(C)C3)c3ccccc32)cc1 (configuration not stated)	-3	101	103	-2
105	Cc1cc(NC(=O)c2ccco2)ccc1NC(=O)Cc1ccccc1	0	103	103	-11
106	Cc1cc(N2CCCC2)nc2ccc(NC(=S)NC3CCCC3)cc12	-38	102	95	-36
107	CN1/C(=C\C(=O)c2nc(S(C)(=O)=O)ncc2Cl)C(C)(C)c2ccccc21	-7	125	125	-203
108	O=C(CN1CCOc2ccccc21)NC1CCCCCCC1	-12	100	102	4
109	COc1cccc2c1OC1(C)NC(=O)NC2C1C(=O)Nc1cccc(Cl)c1 (configuration not stated)	-4	105	101	1
110	CC(C(=O)NCCc1ccc(F)cc1)N1CCN(S(=O)(=O)c2ccc3c(c2)OCCCO3)CC1 (configuration not stated)	-5	99	94	-22
111	CCCN1Cc2cccc(C(=O)NCc3ccc(F)cc3)c2C1=O	-5	101	103	3
112	COCC(=O)Nc1c(I)c(C(=O)NCC(O)CO)c(I)c(C(=O)N(C)CC(O)CO)c1I (configuration not stated)	-5	104	98	-15
113	OCC1CCCN(C(=S)Nc2ccc(Nc3ccccc3)cc2)C1 (configuration not stated)	6	100	101	-8
114	COc1ccc(/C=C2\SC(=O)N(CCNC(=O)CC(C)(C)C)C2=O)cc1	13	103	110	-21
115	O=S(=O)(c1ccc2c(c1)CCN2)N1CCCC1	16	103	106	-16
116	CCOc1ccc(C(=O)N(CC#N)CC#N)cc1	-14	101	104	-35
117	O=C(Sc1ccc(Cl)cc1)c1cccnc1Oc1ccccc1	-6	109	113	7
118	CS(=O)(=O)N1CCN(c2ncccc2C(F)(F)F)CC1	-6	103	107	-16
